High-throughput results as filed in PubChem.
Mtb hypoxia inh: Mtb hypoxia fluorescent reporter inhibition; fluorescence inhibition, % (concentration not given with the values); M. tuberculosis hypoxia-regulated fluorescent reporter, fluorescence; 300,000 tested, 0.1% active;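 active means 35 to 45% if threefold the growth effect, above 45% if 1.5-fold the growth effect; inactive means the rest, general growth blockers included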;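 further: wells of about 50 µL received 100 nL stock; 0% = vehicle wells and 100% = reference inhibitor wells; whole bacteria with a GFP reporter of the hypoxia response; strong numbers were not always called active; many hits fall short of the cut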
BJeLR viability: kills HRASV12-expressing BJeLR cells; BJeLR (HRASV12) viability, CellTiter-Glo ATP luminescence, 48 h; reference of the scale not given here; inhibition, % (no concentration beside the values); 300,000 tested, 0.17% active;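 active means replicate mean above 50%; inconclusive means above 50% but judged a plate artefact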;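 further: 50 nL library stock added to about 25 µL; numbers are from one replicate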
ugtP null kill: compounds lethal to S. aureus RN4220 ugtP deletion mutant | OD600 growth, 16 h; some inactives read as strong as hits | 330,000 tested, 0.54% active | growth inhibition, % (no concentration beside the values);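 active means z-score under -3 and OD600 up to 0.15 on both plates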;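 further: plate controls were untreated wells for no effect and antibiotic for full effect; wells of about 80 µL received 100 nL stock; the first replicate is given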
RN4220 kill: S. aureus RN4220 growth inhibition; OD600, 16 h; inhibition, % (test concentration not listed); 330,000 tested, 0.33% active;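 active means z-score of -3 or lower and OD600 up to 0.18 on both plates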;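 further: plate controls were untreated cells for no effect and reference antibiotic for full effect; stock transfer was 100 nL into about 80 µL; one replicate is shown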
Bead autofluor: counter-screen for toxin protease inhibitors: compound fluorescence. compound autofluorescence counterscreen, microsphere flow cytometry; stronger effect = higher value. fluorescence intensity (concentration not given with the values). 360,000 tested, 3.1% active. AID 624483;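 active means at least 3 SD above the mean of all compounds, about 16000 in these data; inconclusive means too few beads counted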;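 further: 100 nL of 1 mM stock went into each well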
PrP UTR inh: suppresses PrP 5' UTR mRNA reporter expression | cell-based PrP 5' UTR mRNA reporter, plate reader | inhibition, % (concentration not given with the values) | 340,000 tested, 0.35% active;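 active means every replicate at 50% or more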;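 further: 0 = median of the neutral control wells; tested in H4 reporter cells; numbers are from one replicate; inactives centre near -14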
Mtb hypoxia inh growth: also measured in Mtb hypoxia inh; calls as there; growth inhibition, %; measured here: M. tuberculosis growth (absorbance);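 0% = vehicle and 100% = reference antibiotic; read after six days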
An asterisk follows results filed as active; ? = inconclusive; / = not tested or not shown.

SMILES,Mtb hypoxia inh,Mtb hypoxia inh growth,BJeLR viability,ugtP null kill,RN4220 kill,Bead autofluor,PrP UTR inh
CC1CCc2sc(C(=O)NNC(=S)NCC3CCCO3)cc2C1 (stereo unspecified),9,2,-9,0,0.9,6297,-19
CN(C)C(=O)CN(c1ccc(F)c(Cl)c1)S(C)(=O)=O,11,5,3,16,3.2,7359,-8
O=C(c1ccc(S(=O)(=O)N2CCCCC2)cc1)N1CCN(c2ccccc2)CC1,9,3,4,4,3.8,10736,-25
CC(=O)N1CCN(CCN=CC2=C(O)CC(C)(C)CC2=O)CC1,7,5,6,1,7.5,10035,-26
O=C(c1ccccc1)c1ccc2nc(-c3ccc(NC(=O)c4ccccc4F)cc3)[nH]c2c1,23,-21,4,-7,-15,2571,-13
CCOC(=O)/C(C#N)=C/c1c(N2CCN(c3cccc(Cl)c3)CC2)nc2c(C)cccn2c1=O,-9,1,18,8,4.0,3187,-16
O=[N+]([O-])c1cc(Cl)cc2c1nc(NCCO)c1ccccc12,/,/,-13,/,/,3687,-5
Cc1cccc(NS(=O)(=O)c2nnc(NC(=O)c3ccc(C)c(C)c3)s2)c1,6,-2,/,15,12,6129,-4
COc1ccc(N(C(=O)c2ccncc2)S(=O)(=O)c2ccc3c4c(cccc24)C(=O)N3C)cc1,8,3,/,1,3.4,2621,-30
CCOC(=O)CC1NCCc2c1[nH]c1ccc(OC)cc21 (stereo unspecified),9,3,-4,0,-0.4,3577,2

Remaining list, next part.
SMILES,Mtb hypoxia inh,Mtb hypoxia inh growth,BJeLR viability,ugtP null kill,RN4220 kill,Bead autofluor,PrP UTR inh
O=P(Oc1ccc(Cl)cc1)(N1CC1)N1CC1,16,6,/,3,4.3,3417,-9
CCOc1ccc(-c2csc(NC(=O)c3ccco3)n2)cc1,3,0,0,41,6.7,4461,-53
C/C(=C\c1ccccc1)CN1CCC(C(=O)N2CCCC(C)C2)CC1 (stereo unspecified),8,2,1,-2,4.0,2258,-15
O=C(N/N=C/c1ccccn1)c1cc(-c2ccc(Cl)s2)[nH]n1,/,/,2,/,/,3804,-18
O=C(COc1cc(Cl)c(Cl)cc1Cl)Nc1cccc(O)c1,14,4,-4,-13,-0.6,3860,-58
O=[N+]([O-])c1ccc(C[n+]2ccc(Cc3ccccc3)cc2)cc1,6,-6,-4,2,6.5,2563,-22
CC(=O)N1CCOc2cc(S(=O)(=O)NCc3ccc(F)cc3)c(C)cc21,/,/,-10,-3,2.6,5496,-14
CC(C)C(=O)Nc1ccc(C(=O)NNC(=S)NC(=O)c2ccccc2[N+](=O)[O-])cc1,6,0,-11,4,4.9,4776,-16
COc1ccc(-c2n[nH]c(=S)n2-c2cc(OC)ccc2OC)cc1,10,-6,5,1,2.0,4941,-2
CCc1sc(C(=O)Nc2ccc(N3CCOCC3)cc2)cc1C,12,9,/,10,-0.1,3702,-32

The results go on.
SMILES,Mtb hypoxia inh,Mtb hypoxia inh growth,BJeLR viability,ugtP null kill,RN4220 kill,Bead autofluor,PrP UTR inh
COC(=O)c1ccc2nc(NC(=O)COC(=O)CSc3nc(C)cc(C)n3)sc2c1,1,7,-10,6,0.4,1957,-8
O=c1c2[nH]c3ccccc3c2ncn1CCN1CCCCC1,9,2,4,3,1.4,4351,-2
CCCN(C(=O)COC(=O)CCOc1ccccc1)c1c(N)n(Cc2ccccc2)c(=O)[nH]c1=O,/,/,-10,/,/,?,-15
ClCCNc1nc2ccc(Cl)cc2[nH]1,24,5,2,12,5.4,3195,-1
Cc1c(/C=N\NC(=O)c2ccc([N+](=O)[O-])cc2)cnn1C,/,/,3,/,/,10161,-6
Cc1nc2ccc(NC(=S)N3CCOCC3)cc2nc1C,5,2,-8,6,6.9,3474,-25
COc1ccc(/C=C(/NC(=O)c2cccs2)C(=O)N2CCOCC2)cc1OC,-2,4,-13,-1,3.3,2201,-33
CCc1nnc(NC(=O)CCC(=O)N2CCCC2)s1,/,/,-5,4,2.4,3970,5
C[C@@H]1CC[C@H]2[C@@H](C)C(=O)O[C@@H]3O[C@@]4(C)CC[C@@H]1[C@]32OO4,/,/,-2,0,4.1,5067,-18
O=C(CSc1nc2ccccc2c(=O)n1-c1ccc(Cl)cc1)N/N=C/C=C/c1ccccc1[N+](=O)[O-],/,/,-10,/,/,1994,-4

(more compounds)
SMILES,Mtb hypoxia inh,Mtb hypoxia inh growth,BJeLR viability,ugtP null kill,RN4220 kill,Bead autofluor,PrP UTR inh
O=[N+]([O-])c1ccc(-c2cc(-c3ccncc3)nc3ccc4ccccc4c23)cc1,-13,-2,/,-15,-4.2,7395,-30
C=CCc1cc(C)cc(C)c1OCCn1cncn1,/,/,-2,2,1.6,4726,-7
COc1ccc(CNC(=S)Nc2ccccc2Cl)cc1,-2,-2,-4,0,4.1,3284,-33
COc1ccccc1C(=O)N(Cc1cccs1)C1CCS(=O)(=O)C1 (stereo unspecified),17,4,5,6,6.0,4576,-2
COc1ccccc1/C=C/C(=O)NCC(=O)N/N=C(/C)c1ccco1,/,/,-2,/,/,2835,-17
CCc1ccc(/C=C2/Sc3ccccc3N(CC(=O)NCCCOC)C2=O)cc1,4,8,-7,2,0.8,/,/
COc1cc(/C=C/C(=O)OCC(=O)N2CCN(S(=O)(=O)c3ccc(C)cc3C)CC2)cc(Cl)c1OC,5,4,/,-10,4.1,5383,-10
CCCCC(NC(=O)COc1cc2c(c3oc(=O)cc(C)c13)CCC(C)(C)O2)C(=O)O (stereo unspecified),0,-1,6,9,4.6,3105,9
COc1cccc(NC(=O)C2CCOC2=O)c1 (stereo unspecified),-1,4,-6,5,3.8,3382,/
Cc1ccc(CSc2nc(N)cc(N)n2)cc1,6,-4,-2,14,-0.5,/,-30

(cont.)
SMILES,Mtb hypoxia inh,Mtb hypoxia inh growth,BJeLR viability,ugtP null kill,RN4220 kill,Bead autofluor,PrP UTR inh
O=C(OCCOCCN=C1NS(=O)(=O)c2ccccc21)c1ccncc1,3,2,-6,-3,-8.5,3737,-47
O=C1C(Oc2ccccc2)C(c2ccc3c(c2)OCO3)N1CCc1ccc(F)cc1 (stereo unspecified),-2,3,-1,-1,4.4,10482,-16
O=C1C(Nc2ccccc2)=CC(=NS(=O)(=O)c2cccs2)c2ccccc21,15,11,/,74,79,/,/
O=C(NCc1ccccn1)Nc1ccc(Cl)c(Cl)c1,/,/,-5,-7,-9.3,2643,-31
O=C(Nc1ccc(Cl)cc1)c1nc[nH]c1C(=O)N1CCc2ccccc2C1,5,8,/,-3,0.4,4249,-3
c1ccc2c3c([nH]c2c1)C(C1CCCCC1)N(Cc1ncc[nH]1)CC3 (stereo unspecified),2,-5,-8,-12,2.0,2639,-15
COCCn1c(N)c(Sc2ccccc2[N+](=O)[O-])c(=O)[nH]c1=O,-12,-1,3,4,4.4,4522,-18
COc1ccc(NS(=O)(=O)c2ccc(C)c(C(=O)O)c2)cc1,6,-3,-8,3,1.8,6734,-17
Cc1c(NC(=S)NC(=O)C(C)(C)C)c(=O)n(-c2ccccc2)n1C,/,/,15,/,/,8473,-25
CCS(=O)(=O)Nc1ccc(-c2nnc(SCC(=O)c3cccc(OC)c3)o2)cc1,/,/,10,-16,-2.7,4934,-22

(next part)
SMILES,Mtb hypoxia inh,Mtb hypoxia inh growth,BJeLR viability,ugtP null kill,RN4220 kill,Bead autofluor,PrP UTR inh
CCOc1ccc(C2NC(=O)c3n[nH]c(C)c32)cc1 (stereo unspecified),6,3,13,13,2.5,4503,-10
O=C(Cn1nc(-c2ccccc2Cl)ccc1=O)Nc1ccc(Br)cc1,7,8,-9,2,0.7,4116,-18
COc1ccc(NC(=S)N2CCC(N(C)CC3CCCO3)CC2)cc1Cl (stereo unspecified),7,3,-12,4,0.2,1948,-17
CC(=O)Nc1ccc(NC(=S)Nc2ccc(Br)cc2)cc1,11,3,4,-12,-2.3,4245,-11
O=C(COC(=O)c1cc2c(s1)CCC2)Nc1ccc(F)cc1,-4,5,5,0,4.3,2573,-11
COC(=O)c1[nH]c2cccc(OC)c2c1NC(=O)CCN1CCN(c2ccccc2OC)CC1,6,5,-6,1,2.5,10549,-25
Cc1ccc(NC(=O)COC(=O)c2ccc([N+](=O)[O-])o2)cc1S(=O)(=O)N1CCCCCC1,12,21,-12,4,6.2,3230,-6
Cc1ccn2cc(CCNC(=O)CC3CCCCC3)nc2c1,2,6,-6,3,4.8,2914,-26
CCOc1ccc(NC(=O)CN(C)C(=O)Cn2cnc3c2c(=O)n(C)c(=O)n3C)cc1OCC,5,9,23,-1,0.5,/,-20
S=C(N/N=C/c1ccc(Cl)c(Cl)c1)Nc1ccccc1Cl,/,/,-4,/,/,4253,-35

Continued:
SMILES,Mtb hypoxia inh,Mtb hypoxia inh growth,BJeLR viability,ugtP null kill,RN4220 kill,Bead autofluor,PrP UTR inh
CCOC(=O)COc1nc(-c2ccc(Cl)cc2)cc(-c2ccco2)c1C#N,/,/,-1,/,/,3674,-16
O=C(CSc1nnc(-c2cccs2)n1C1CC1)NCC1CCCO1 (stereo unspecified),-5,3,/,3,6.3,4112,-19
CCc1noc(C)c1C(=O)Nc1ccc(Cl)c(S(=O)(=O)N2CCCCC2)c1,12,0,11,3,1.9,5060,-9
COc1ccc(CCN2C(=O)c3ccccc3C2(O)c2ncc[nH]2)cc1OC (stereo unspecified),-7,0,0,-1,-1.8,4086,-8
Cc1ccc(N=C2C(=O)Nc3ccccc32)c(C)c1,-1,-4,-13,-1,-3.8,3378,-17
Cc1ccc(NC(=O)CN(C)S(=O)(=O)c2ccc3c(c2)n(C)c(=O)c(=O)n3C)cc1,4,-6,8,15,3.3,4368,-8
CSc1ncccc1C(=O)NC(C)C1CC2CCC1C2 (stereo unspecified),16,10,-4,1,7.4,2527,-13
C=CCSc1nc(C)cc(/C=C\c2ccccc2)c1C#N,0,1,1,16,6.4,21811*,-14
Cn1c(SCC(=O)NN2C(=O)NC(C)(c3ccccc3)C2=O)nnc1-c1ccncc1 (stereo unspecified),11,6,/,1,2.1,/,-14
O=C(NN=C/C=C/c1ccccc1)NC1CCCCC1,9,5,/,-6,17,/,/

New compounds follow.
SMILES,Mtb hypoxia inh,Mtb hypoxia inh growth,BJeLR viability,ugtP null kill,RN4220 kill,Bead autofluor,PrP UTR inh
CC(C)N(C(=O)COC(=O)c1cc(Cl)cc(Cl)c1N)C(C)C,3,8,-9,13,20,21720*,-12
Cc1ccc(C2=NN(CC(=O)O)C(=O)CC2)cc1,5,-11,5,4,0.3,3944,-16
O=C(NCc1nnnn1-c1ccc(Cl)cc1)c1ccc(Br)o1,5,4,-6,1,3.8,/,-19
CCC(C)(C)n1nnnc1C(c1cccs1)N1CC=C(c2ccc(F)cc2)CC1 (stereo unspecified),5,8,3,26,21,5650,-5
Cc1cc(C)cc(NC(=S)Nc2cccc3cnccc23)c1,3,0,/,5,0.2,4871,-14
Cn1c(/C(C#N)=C(\O)COc2ccc3ccccc3c2)nc2ccccc21,2,-6,6,-10,-15,3278,-2
O=C(Nc1c(Cl)cc(Cl)cc1C(=O)NCCN1CCOCC1)c1ccc(Cl)cc1Cl,0,3,-3,-1,-0.5,16191*,1
c1ccc(CCNc2ncnc3sccc23)nc1,2,3,-7,1,2.0,4522,-32
CSc1ccc(/C=N/NC(=O)c2sccc2C)cc1,/,/,8,/,/,7225,-22
CC(C(=O)Nc1ccc2c(c1)OCCO2)n1nnc(-c2ccccc2)n1 (stereo unspecified),14,5,-3,6,4.2,2501,-12

(list continues)
SMILES,Mtb hypoxia inh,Mtb hypoxia inh growth,BJeLR viability,ugtP null kill,RN4220 kill,Bead autofluor,PrP UTR inh
O=C(c1ccc2c(c1)OCO2)C1CCCN(Cc2ccc(OC(F)F)cc2)C1 (stereo unspecified),10,-3,-2,3,-0.2,5632,-18
Cc1ccc(S(=O)(=O)/N=C2/NC(=O)/C(=C/c3ccncc3)S2)cc1,15,5,-1,-3,5.2,/,/
COc1ccccc1-n1c(-c2ccccc2Cl)nc2ccccc2c1=O,2,-1,1,11,5.4,3635,1
O=C(c1ccco1)N1CCN(S(=O)(=O)c2ccc(S(=O)(=O)NC3CCCC3)cc2)CC1,-5,2,14,-3,6.1,5743,-19
O=C(Cn1nnc(-c2ccccc2NC(=O)c2ccccc2)n1)Nc1ccc2c(c1)OCCO2,-6,-6,0,1,1.9,5833,-15

Shown with two lines to a compound: entries from further up.
Values run as follows: Mtb hypoxia inh	Mtb hypoxia inh growth	BJeLR viability	ugtP null kill	RN4220 kill	Bead autofluor	PrP UTR inh
COc1ccccc1-n1c(-c2ccccc2Cl)nc2ccccc2c1=O
 : 2	-1	1	11	5.4	3635	1
O=C(c1ccco1)N1CCN(S(=O)(=O)c2ccc(S(=O)(=O)NC3CCCC3)cc2)CC1
 : -5	2	14	-3	6.1	5743	-19
